Beta cell apopt – beta cell apoptosis inhibition; protection from apoptosis, % (test concentration not listed); 300,000 compounds, 0.8% hits; INS-1E cytokine-induced death, ATP luminescence, 48 h; percent of positive-control rescue, neutral wells zero; AID 435005;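 active = all replicates at 75% or more, or half of them and the mean; inconclusive = half reach 75% but not the mean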;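 note: 0% = cytokine-treated negative control wells and 100% = positive control rescue; higher means more ATP so stronger rescue from cytokine killing; wells of about 40 µL received 100 nL stock; the first replicate is given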
Ecoli rRNA inh – inhibitors of bacterial rRNA selective over humanized ribosomes. E. coli WT GFP vs humanized-ribosome RFP mutants, fluorescence, 24 h; stronger effect = lower value; DMSO median 0, no signal -100. GFP signal change (wild-type ribosome), % (concentration not given with the values). 350,000 compounds, 1.6% hits;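 active = significant combined selectivity score with lowered wild-type GFP, culture density cut under 30%, mutant RFP and density less affected; inactive = any of these conditions unmet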; note: one replicate is shown; some compounds called inactive have numbers as strong as hits
AF4-AF9 inh – blocks AF4 peptide binding to human AF9; P42568; AlphaScreen, biotin-AF4 peptide binding to FLAG-AF9; inhibition, % at 10 µM; 350,000 compounds, 0.47% hits; AID 651704;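 active = every replicate reaching a set inhibition limit, whatever the replicate mean, cut at about 25% in these data; inconclusive = mean inhibition reaches that limit but some replicates miss it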;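 note: 0% = plate neutral control median and 100% = total signal loss; the record names both 10 and 1 µM as test concentration; the first replicate is given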
Target sequence (P42568 whole entry, looked up): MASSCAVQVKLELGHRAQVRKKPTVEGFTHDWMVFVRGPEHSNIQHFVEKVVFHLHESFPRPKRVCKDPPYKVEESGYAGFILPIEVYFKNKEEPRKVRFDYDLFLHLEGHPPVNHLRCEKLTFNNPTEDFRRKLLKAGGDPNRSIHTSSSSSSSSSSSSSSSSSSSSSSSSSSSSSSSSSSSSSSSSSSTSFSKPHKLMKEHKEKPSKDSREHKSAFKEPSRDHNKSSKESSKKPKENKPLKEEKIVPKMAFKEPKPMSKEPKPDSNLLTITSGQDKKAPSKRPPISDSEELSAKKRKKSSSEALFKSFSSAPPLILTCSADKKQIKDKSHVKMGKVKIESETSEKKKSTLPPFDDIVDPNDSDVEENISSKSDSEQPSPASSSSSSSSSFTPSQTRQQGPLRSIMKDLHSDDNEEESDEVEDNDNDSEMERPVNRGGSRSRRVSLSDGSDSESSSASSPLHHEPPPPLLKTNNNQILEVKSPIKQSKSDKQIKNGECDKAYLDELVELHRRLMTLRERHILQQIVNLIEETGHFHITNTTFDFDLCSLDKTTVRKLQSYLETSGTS
Calb FLC – C. albicans growth modulation with fluconazole; C. albicans CaCi-2 (fluconazole-resistant clinical isolate) + fluconazole, Alamar Blue growth, 48 h; growth inhibition, % (no concentration beside the values); 300,000 compounds, 0.57% hits; AID 1979;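 active = most replicates above 75%; inconclusive = exactly half above 75%; inactive = most below 75%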;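 note: all wells also contain fluconazole at 8 µg/ml as a sub-toxic cotreatment; 0% = median of DMSO wells and 100% = median of geldanamycin control wells; wells of about 8 µL received 7.5 nL stock; the first replicate is given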
FGF22 binding – binders of recombinant human FGF22 by thermal shift | Q9HCT0 | SYPRO orange fluorescence; percent of sucrose octasulfate shift, DMSO zero | calls only at 9.99 µM | 340,000 compounds, 1.5% hits;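 active = melting point raised past a set limit in the mean and every replicate; inconclusive = no clear call; three in four hits are not shown here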
Target sequence (Q9HCT0 whole entry, looked up): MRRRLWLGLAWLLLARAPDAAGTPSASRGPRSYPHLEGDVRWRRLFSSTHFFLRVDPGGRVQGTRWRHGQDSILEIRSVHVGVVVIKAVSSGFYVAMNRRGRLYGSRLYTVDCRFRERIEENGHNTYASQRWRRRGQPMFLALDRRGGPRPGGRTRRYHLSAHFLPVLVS
T cruzi inh – T. cruzi replication inhibition | 300,000 compounds, 1.4% hits | T. cruzi beta-gal in NIH3T3, luminescence, 90 h | inhibition, % (concentration not given with the values);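 active = mean inhibition across valid replicates above about 55%, limit read from the data; inconclusive = mean below that limit but half or more replicates reach it; inactive = mean below it, under half of replicates reach it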;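 note: signal also drops with host cell toxicity which is not excluded here; 0% = plate median of DMSO wells and 100% = zero luminescence signal; higher percent means less beta-gal luminescence so fewer parasites; stock transfer was 50 nL into about 50 µL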
ALR H2O2 inh – blocks human ALR sulfhydryl oxidase activity; P55789; purified ALR, DTT oxidation, H2O2 HRP-luminol luminescence; inhibition, % (concentration not given with the values); 290,000 compounds, 3.8% hits;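 active = mean and each replicate at 75% or more; inconclusive = only one of the two met; inactive = neither met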;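 note: stock transfer was 7.5 nL into about 7.5 µL; 0% = neutral wells and 100% = wells with inactivated enzyme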
Target sequence (P55789 whole entry, looked up): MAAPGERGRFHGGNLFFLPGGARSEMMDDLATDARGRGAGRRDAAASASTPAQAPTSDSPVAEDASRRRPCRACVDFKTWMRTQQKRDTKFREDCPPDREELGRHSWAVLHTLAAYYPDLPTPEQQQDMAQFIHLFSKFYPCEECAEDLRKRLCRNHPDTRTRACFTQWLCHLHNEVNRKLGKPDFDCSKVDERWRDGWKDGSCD
RanGTP-Impb inh – inhibitors of RanGTP-importin-beta interaction, primary screen, biochemical, FRET, CFP-Ran, YFP-importin-beta, homogeneous; 300,000 compounds, 1.1% hits; cell-free CFP-Ran/YFP-importin-beta FRET ratio; inhibition, % (concentration not given with the values);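 active = most replicates above 15%; inconclusive = exactly half above 15%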;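 note: 0% = DMSO wells and 100% = Ran loaded with GDP instead of GTP; wells of about 40 µL received 100 nL stock; the first replicate is given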
Ecoli rRNA inh OD600 – also measured in Ecoli rRNA inh; calls as there; OD600 change, %; measured here: OD600 growth;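 optical density of the mix in the first replicate; 0 = DMSO median and -100 = no signal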
Ecoli rRNA inh RFP – further read-out of Ecoli rRNA inh, marked with its call; RFP signal change, %; measured here: RFP humanized mutant strains;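 first replicate; 0 = DMSO median and -100 = no signal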
* marks the source's active call; other numbers are inactive results; i = inactive; ? = inconclusive; · = not tested or not shown; & = joins results of further samples. An excerpt, so the mix of outcomes need not match the whole.

Fields – T cruzi inh	Ecoli rRNA inh RFP	AF4-AF9 inh	RanGTP-Impb inh	FGF22 binding	Ecoli rRNA inh	Calb FLC	Beta cell apopt	ALR H2O2 inh	Ecoli rRNA inh OD600
1. Cc1ccc(CNC(=O)CSc2ncc(C(=O)Nc3ccccc3)c(=O)n2C)cc1
  0.9	0.2	0.1	0.7	·	4.0	-9.2	-3.9	1.0	4.5
2. CCc1ccc(NC(=O)COC(=O)CC2CCCC2)cc1
  ·	-17.2	-4.1	·	i	-59.3	·	2.5	1.8	-79.5
3. COc1ccc(CCNC(=O)CCCCC(=O)NCCc2ccc(OC)c(OC)c2)cc1OC
  -19.0	-1.3	-0.2	3.0	i	8.5	7.5	-3.2	-2.0	13.9
4. COc1ccc(OC)c(NC(=O)C2C(C(=O)O)C3(Cl)C(Cl)=C(Cl)C2(Cl)C3(Cl)Cl)c1 (stereo not drawn)
  19.9	2.1*	2.0	3.9	i	-18.6*	36.0	-1.3	-12.1	-7.3*
5. CC(C)CCN1CCC(n2nccc2NC(=O)c2ccc3c(c2)OCO3)CC1
  15.2	-0.9	1.2	-0.4	i	9.7	3.8	-2.7	-0.1	19.6
6. Cc1csc(=O)n1CCC(=O)OCC(=O)NNC(=O)c1ccccc1
  -3.5	-4.3	-16.6	1.6	i	9.9	-0.2	-5.9	-6.8	7.0
7. CCc1nnc(NC(=O)CSc2nnc(-c3ccc(S(=O)(=O)N4CCCC4)cc3)n2CC)s1
  -25.8	-0.8	·	3.2	·	0.3	-8.7	2.2	-5.4	8.8
8. O=S(=O)(c1ccc(NC(=S)NCc2ccco2)cc1)N1CCCC1
  -1.8	·	·	0.4	·	·	-7.5	-3.4	-1.3	·
9. COC(=O)Nc1ccc(S(=O)(=O)NCCO)cc1
  -19.6	·	·	-0.7	·	·	-22.6	2.1	-14.8	·
10. CCN(CC)CCNC(=O)c1ccc(NC(=O)C2CCN(c3ncnc4sc(C)c(C)c34)CC2)cc1
  3.2	6.1	12.7	?	i	-7.2	13.4	0.2	3.1	-2.7
11. Cc1cc(C)n(CC2CC(=O)N(c3ccc(Cl)c(Cl)c3)C2=O)n1 (stereo not drawn)
  0.6	·	·	-5.5	·	·	-1.7	-3.2	1.2	·
12. Cc1ccccc1NC(=O)/C(=C/c1ccccc1)c1ccccc1
  5.5	-3.9	·	0.3	·	-8.6	-5.8	6.3	-11.2	-34.8
13. Cc1ccc(NC(=O)C2CSC3(C)CCC(=O)N23)cc1S(=O)(=O)N1CCOCC1 (stereo not drawn)
  ·	·	-1.1	·	i	·	·	-1.3	-3.2	·
14. Cc1cc(C)nc(-n2nc(C)cc2NC(=O)CN2CCc3ccccc3C2)n1
  23.2	11.7	1.7	-4.9	i	2.4	40.1	11.4	-18.8	-0.1
15. CCCN1C(=O)/C(=N\OCC(=O)NCC(F)(F)F)c2ccccc21
  -18.6	·	·	-0.6	·	·	12.1	-6.4	3.9	·
16. CCOc1ccc(/C(O)=C2/C(=O)C(=O)N(c3ncccn3)C2c2ccccc2)cc1 (stereo not drawn)
  -4.1	2.0	-2.8	-3.0	i	15.0	-19.0	-2.3	-4.9	23.6
17. Cc1ccc(N2CC(C(=O)Nc3nccs3)CC2=O)cc1 (stereo not drawn)
  -17.8	·	·	-1.0	·	·	-1.8	-3.4	-3.0	·
18. Cc1ccc(C)n1-c1nn(S(=O)(=O)c2cccc3cccnc23)c2cccc(F)c12
  16.7	1.0	-1.5	6.0	i	3.6	5.3	-13.1	1.1	-5.9
19. Cc1onc(-c2ccccc2)c1C(=O)Nc1cccnc1
  -3.3	-0.8	·	0.7	·	6.1	13.2	-8.5	-2.2	16.1
20. Cc1cc2nc(-c3ccc(SCC(=O)Nc4ccc5c(c4)OCCO5)nc3)[nH]c2cc1C
  18.0	4.8	-1.2	-1.4	i	11.6	12.6	12.8	-15.2	8.2
21. COc1ccc(CCNC(=O)C2CCCN(S(=O)(=O)c3ccccc3)C2)cc1 (stereo not drawn)
  -9.0	-0.4	-0.1	-1.1	i	-2.7	9.7	-0.9	-3.5	-17.1
22. CCOC(=O)c1ccc2c(c1)nc(SC/C(O)=C(\C#N)c1nc3ccccc3[nH]1)n2CC
  -29.9	·	·	?	·	·	-3.1	1.0	-1.8	·
23. COc1ccc(C2SCC(C(=O)O)N2C(C)=O)cc1 (stereo not drawn)
  -13.2	·	·	-0.4	·	·	-6.1	-1.6	-4.7	·
24. COc1ccc(N(C(=O)c2cccc(OC)c2OC)C2C=CS(=O)(=O)C2)cc1 (stereo not drawn)
  -2.1	3.2	-4.5	-2.3	i	4.8	6.2	-6.3	-6.8	1.9
25. C#CCOCCOCCOCCNc1nc(N2CCN(C(=O)[C@H](Cc3ccc(O)cc3)n3cc([C@@H](N)CC(C)C)nn3)CC2)nc(N2CCN(C(=O)[C@H](Cc3cc4ccccc4[nH]3)n3cc([C@@H](N)CC(C)C)nn3)CC2)n1
  -13.0	24.5	23.0	10.6	i	-9.2	11.2	-6.2	·	-33.0
26. Oc1ccc(Nc2nc(-c3ccccc3F)nc3ccccc23)cc1
  9.8	-2.2	9.6	-0.9	i	-16.7	5.5	-3.1	99.5*	-12.9
27. COCCNC(=O)c1cccc(OC2CCN(Cc3ccc(C(=O)OC)cc3)CC2)c1
  -0.9	1.4	-2.4	-3.6	i	2.2	-4.3	·	5.0	7.2
28. CCc1ccccc1NC(=O)CN1CCN(C(=O)CNC(=O)c2ccc(N3CCCC3=O)cc2)CC1
  ·	3.8	-3.9	·	i	10.5	·	-8.3	-1.5	5.8
29. CSc1cc(-c2ccccc2)n(Cc2c(Cl)cccc2Cl)c(=O)c1C#N
  -23.1	·	·	6.3	·	·	-6.2	1.6	4.3	·
30. COc1ccc(OC)c(NC(=O)c2cc3c(=O)n4ccccc4nc3n2C)c1
  -3.0	-1.3	-4.7	3.9	i	3.9	12.0	-3.1	·	3.7
31. CC1CCN(C(=O)CSc2nc(=O)n3ccccc3n2)CC1
  -12.4	1.4	3.5	0.5	i	10.3	4.2	-2.3	·	12.9
32. O=C(Cc1ccccc1)c1nc2ccccc2s1
  -6.0	·	·	-3.7	·	·	-0.6	-7.2	-126.4	·
33. CCc1ccc(C(=O)OCC(=O)NC2CCCC2)cc1
  10.7	-3.5	-2.5	2.6	i	11.7	-1.1	1.8	-5.8	13.7
34. O=C(NCCCl)Nc1ccc(Cl)c([N+](=O)[O-])c1
  -15.6	-16.0	6.7	0.1	i	-58.6	-1.2	-4.1	-2.6	-66.8
35. O=[N+]([O-])c1cc(C(F)(F)F)ccc1NN=C1CCCC1
  -6.3	·	·	2.8	·	·	-5.5	2.9	4.7	·
36. O=C(/C=C/c1ccc(F)cc1)NC(=S)N1CCN(c2ccccn2)CC1
  4.8	-1.8	-0.9	1.4	i	-9.3	-2.1	1.1	14.5	-6.2
37. COc1ccc(S(=O)(=O)NCC2CCCN(C(=O)CSC)C2)cc1 (stereo not drawn)
  4.0	0.0	2.0	-5.2	i	8.8	-0.4	·	·	2.9
38. COc1cc2sc3ccc(-c4ccc(N(C)C)nc4)cc3c(=O)c2cc1OC
  -10.8	2.0	-0.3	-2.7	i	0.3	7.5	41.4	-22.7	9.1
39. Cc1ccc(-c2cc(C(F)F)nc(N3CCC(C)CC3)n2)cc1
  4.4	·	·	0.0	·	·	-2.6	·	7.9	·
40. CCCS(=O)(=O)NCc1cn2cccc(C)c2n1
  -14.9	1.4	0.8	1.4	i	8.1	-1.6	-0.7	-1.2	21.6
41. O=C(O)c1cccc(-c2ccc(/C=N/Nc3ccc([N+](=O)[O-])cc3)o2)c1
  3.8	-8.3*	2.7	-94.2	i	-38.5*	-4.8	-0.8	19.1	-13.3*
42. COCCC(=O)N1CCC(Oc2ccc(C(=O)N(C)C3CCCCC3)cc2)CC1
  -1.9	-1.7	0.8	-1.8	i	-2.7	13.8	-4.7	-8.3	-3.3
43. C=C(C)CSc1nc2nc(C)c(Br)cc2[nH]1
  -1.2	·	·	3.1	·	·	-7.4	-2.1	9.6	·
44. O=C(CSc1nnc(COc2ccc3c(c2)CCCC3)o1)Nc1ccc(F)cc1
  -10.0	-1.8	-4.9	-3.8	i	4.3	15.5	·	-8.0	4.3
45. COC(=O)c1ccc2nc(C)cc(Nc3ccc(N(C)C)cc3)c2c1
  9.3	-0.5	31.5*	1.0	i	-1.5	11.1	13.9	99.3*	10.0
46. COc1ccc(C(=O)N(CN2CCCC2=O)c2cc(C)on2)cc1OC
  -18.9	·	·	-0.3	·	·	-0.3	-4.8	-23.7	·
47. C[C@@H]1CN([C@H](C)CO)C(=O)c2cccc(NS(=O)(=O)c3ccccc3)c2O[C@H]1CN(C)C
  ·	-2.5&-5.9	-3.3&-0.3	·	i	4.6&0.1	·	-10.7	·	7.2&7.4
48. CS(=O)(=O)c1ccc(NCCc2ccc(S(N)(=O)=O)cc2)c([N+](=O)[O-])c1
  3.9	-3.1	-1.0	-4.7	i	11.8	2.8	5.2	-2.6	6.8
49. Cc1ccc(C)c(S(=O)(=O)Nc2ccc3oc(C)c(C(=O)O)c3c2)c1
  -3.5	0.6	-0.6	7.3	i	0.3	13.2	0.7	·	8.1
50. Cc1nc([N+](=O)[O-])c(Br)n1CC(=O)c1ccc(Br)cc1
  35.7	·	·	-3.2	·	·	?	-9.7	10.3	·
51. O=C(NCCCNC(=O)c1cnccn1)c1cccc(Cl)c1
  -12.1	1.0	0.0	-1.0	i	3.8	5.1	-1.3	1.7	5.6
52. COc1cccc(-n2c(N)cc(=O)nc2SCC(=O)N2CCN(c3ccccc3)CC2)c1
  -7.7	1.3	3.6	?	i	2.6	1.1	-6.0	65.8	8.1
53. C=C(C)c1cccc(C(C)(C)NC(=O)N(Cc2ccccc2)Cc2ccco2)c1
  5.1	·	·	-0.8	·	·	-1.3	-0.1	·	·
54. CC(C(=O)OCC(=O)Nc1ccc(S(N)(=O)=O)cc1)N1C(=O)c2ccccc2C1=O (stereo not drawn)
  ·	-2.4	-1.9	·	i	0.0	·	-2.5	-3.1	4.3
55. C=CCc1cccc2cc(C(=O)OCC(=O)c3ccccc3)c(=O)oc12
  -31.1	·	·	-1.0	·	·	4.9	0.1	-2.3	·
56. O=C(CN1CCOCC1)Nc1ccccc1-c1ccccc1
  2.8	·	·	-2.8	·	·	0.0	-3.7	·	·
57. CC1CC(C)CN(C(=O)CN2C(=O)NC3(CCCCCCC3)C2=O)C1 (stereo not drawn)
  ·	0.2	-2.9	·	i	19.4	·	0.4	-0.9	12.4
58. CC(C)CNc1nnnc2c1sc1nc(N3CCOCC3)c3c(c12)CC(C)(C)SC3
  46.3	·	·	-1.3	·	·	25.1	19.4	-3.7	·
59. O=C(CCCN1C(=O)c2cccc3cccc(c23)C1=O)NC1CCS(=O)(=O)C1 (stereo not drawn)
  2.7	-5.8	-2.0	3.2	·	3.4	-1.2	-13.3	1.4	1.6
60. O=C(NCCCCCCNC(=O)c1ccc(Br)s1)c1ccc(Br)s1
  41.0	·	·	1.0	·	·	-4.6	2.2	·	·
61. OCC[C@H]1C[C@@H](O)[C@H](O)[C@]2(CCc3ccccc3CO2)O1
  ·	2.0	-3.2	·	i	15.2	·	-2.5	·	12.7
